GALR2 agonist: activates the human galanin receptor 2. AID 803. GALR2-expressing cells, agonist activation read-out. activation, %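 (tested at 5 µM)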. actives 0.48% (n = 140,000). O43603;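 active means above mean plus 3 SD of all compounds, about 5% in these data, not always enough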;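 further: 0% = vehicle buffer wells and 100% = reference agonist at full effect; tested in CHO reporter cells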
PKD1 inh: blocks activity of human protein kinase D1; Q15139; PKD1 kinase fluorescence polarization assay; inhibition, %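 (about 10 µM by stock and volumes)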; actives 0.056% (n = 200,000);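 active means inhibition of 50% or more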;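 further: controls were vehicle for no effect and a reference inhibitor for full effect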
Target sequence (Q15139 whole entry, looked up): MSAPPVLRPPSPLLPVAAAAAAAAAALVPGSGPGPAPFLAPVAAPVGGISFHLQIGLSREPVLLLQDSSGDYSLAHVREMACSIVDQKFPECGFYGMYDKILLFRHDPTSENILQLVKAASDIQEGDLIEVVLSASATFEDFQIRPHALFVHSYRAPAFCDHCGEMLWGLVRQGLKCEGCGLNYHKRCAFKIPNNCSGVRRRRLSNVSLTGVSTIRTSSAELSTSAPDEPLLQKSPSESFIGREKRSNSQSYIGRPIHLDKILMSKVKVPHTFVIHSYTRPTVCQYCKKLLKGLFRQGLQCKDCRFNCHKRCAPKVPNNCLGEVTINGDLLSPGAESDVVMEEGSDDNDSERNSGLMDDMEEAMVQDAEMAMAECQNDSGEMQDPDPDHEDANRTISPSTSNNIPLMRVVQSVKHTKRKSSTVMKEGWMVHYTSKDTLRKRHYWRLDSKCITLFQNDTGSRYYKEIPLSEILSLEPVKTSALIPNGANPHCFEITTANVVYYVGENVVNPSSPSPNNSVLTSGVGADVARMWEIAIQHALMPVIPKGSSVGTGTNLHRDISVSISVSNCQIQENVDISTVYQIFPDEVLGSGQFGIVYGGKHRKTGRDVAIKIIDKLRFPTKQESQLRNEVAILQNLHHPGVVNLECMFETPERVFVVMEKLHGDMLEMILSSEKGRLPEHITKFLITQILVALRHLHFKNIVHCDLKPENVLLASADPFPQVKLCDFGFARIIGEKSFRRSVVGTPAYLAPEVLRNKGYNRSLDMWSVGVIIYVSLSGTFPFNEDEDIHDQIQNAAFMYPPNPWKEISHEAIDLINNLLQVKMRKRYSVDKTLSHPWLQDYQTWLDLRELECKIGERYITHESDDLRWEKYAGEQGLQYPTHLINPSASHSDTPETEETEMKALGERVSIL
RGS16-Gao: modulates binding between human RGS16 and Galphao; O15492+P09471; bead-based flow cytometry RGS16-Galphao binding, fluorescence; actives lie on both sides; binding response (% of control), % at 10 µM; actives 0.38% (n = 220,000); AID 1441;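 active means below 25% or above 175%, edge rows of some plates excepted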;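 further: Galphao activated by GDP with aluminum fluoride before binding; 100% = wells without compound and 0% = beads without RGS; some results beyond the cut were filed as inactive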
HSV augment: HSV replication enhancement | actives 0.005% (n = 220,000) | maximum fold increase | HSV replication augmentation in cells, fold increase;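 active means peak rise of 1.5-fold or more in the series; tested in PC3 cells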;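 further: first round at 10 µM; read as green reporter fluorescence; hits show the peak of a series up to 25 µM; 1 = signal of infected wells without compound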
INS promoter inh: TRM-6 insulin promoter activity inhibition. TRM-6 cells (human fetal islet line), insulin promoter-eGFP reporter, imaging; reporter expression induced with tamoxifen. inhibition, % at 2 µM. actives 0.9% (n = 130,000). AID 1273;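 active means inhibition above the mean plus 3 SD, with well images judged a real hit on visual review, cut at about 60% in these data, passing the limit was not always enough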
INS promoter inh cell count: second read-out of INS promoter inh, no call of its own (marks repeat the call); normalized cell count, %; measured here: cell count, toxicity; reference of the scale not given here;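 cells exposed to compound for 48 h; stained nuclei by imaging scaled within each plate; lower means fewer cells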
HSV augment primary fold: further read-out of HSV augment, marked with its call; fold increase; compound at 10 µM; measured here: primary screen fold increase 10 uM; tested in PC3 cells;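 GFP signal in the first replicate; 1 = infected wells without compound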
An asterisk follows results filed as active; i = inactive; · = no result given. This is a random part of the collection; any-hit rate near 1.1%.

SMILES	GALR2 agonist	PKD1 inh	RGS16-Gao	HSV augment	HSV augment primary fold	INS promoter inh	INS promoter inh cell count
COc1ccc(S(=O)(=O)NCC(=O)N(CC(=O)NCC2CCCO2)c2c(C)cccc2C)cc1 (stereo unspecified)	-1.6	-11.1	91.2	i	0.91	·	·
COC(=O)[C@H](Cc1c[nH]c2ccccc12)NC(=O)Nc1ccccc1OC	·	·	102.8	i	0.93	·	·
O=C1CC(=O)C(n2cncn2)C(c2c(F)cccc2Cl)C1 (stereo unspecified)	-0.3	-10.4	102.7	i	0.94	0.0	106.8
Cc1cc(=O)oc2cc(OCC(=O)N3CCN(C(=O)c4ccco4)CC3)ccc12	·	-2.9	121.2	i	1.07	-9.1	123.5
CC(=O)NCC(=O)OCC(=O)c1ccc(C)cc1	-1.0	-5.3	94.9	i	0.99	·	·
CCN1CCN(CC(=O)Nc2cc(C)on2)CC1	·	2.4	100.7	i	0.84	·	·
CC1=C(C)CC(C(=O)Nc2ccc(C(=O)N3CCOCC3)cc2)C(C(=O)O)C1 (stereo unspecified)	·	-6.6	96.4	i	1.05	·	·
Cc1ccc(Cl)cc1N1CCN(C(=S)NCCc2ccccc2)CC1	·	-0.3	104.8	i	1.11	5.9	116.8
COc1ccccc1CNC(=O)c1ccc(OC(C)C)cc1	·	0.1	101.7	i	0.96	9.5	114.8
COc1ccc(CNC(=O)CSc2nnc(C)c(=O)[nH]2)cc1	·	·	99.8	i	1.01	·	·
Cc1ccc(C(=O)NC(=S)Nc2ccc(-c3ccc(CO)o3)cc2)cc1	·	-5.4	97.5	i	0.99	36.4	118.6
c1ccc(-n2nnnc2-n2ccnc2)cc1	0.5	-6.3	114.2	i	0.96	-31.5	45.8
O=C(COc1cccnc1[N+](=O)[O-])NCCc1ccc(Cl)cc1Cl	·	-5.2	104.3	i	0.97	·	·
Cc1cc2cc(CCNC(=O)c3ccc(Br)o3)c(=O)[nH]c2cc1C	-1.5	-11.6	95.3	i	1.08	-27.3	180.9
Cc1ccc(COc2cccc3c2CCN(Cc2ccc(F)cc2)C3=O)cc1	-0.7	-0.3	100.8	·	·	·	·
O=C(CSc1ncn(-c2ccccc2)n1)Nc1nc2ccccc2s1	-0.1	-7.8	100.4	i	1	36.8	106.8
Cc1ccc(-c2cc(C(F)(F)F)n3nc(C(=O)NCCCn4ccnc4)cc3n2)cc1C	-0.6	-15.6	525.5	i	0.95	·	·
COc1ccc(C(=O)CSc2nnc(CN3CCCCC3)n2-c2ccc(Cl)cc2)cc1OC	0.2	5.7	106.6	i	0.88	27.3	119.7
CCOc1cc(/C=C(\C#N)C(N)=O)ccc1OS(=O)(=O)c1ccccc1	-0.9	-1.8	102.3	i	0.77	6.7	111.6
CN(CC(=O)NCc1cccnc1)S(=O)(=O)c1ccc2c(c1)c(=O)n(C)c(=O)n2C	-1.6	4.8	105.3	i	0.9	·	·
Cc1cccc(NC(=O)CN(C)S(=O)(=O)c2cccc3cccnc23)c1C	·	·	90.7	i	0.94	·	·
Nc1nc(SCc2ccc([N+](=O)[O-])cc2)c2ncn(C3OC(CO)C(O)C3O)c2n1 (stereo unspecified)	-0.8	14.7	101.0	i	0.86	14.7	155.0
COC(=O)c1cc2ccsc2n1CC(=O)N1CCCc2ccccc21	-1.8	-7.2	95.8	i	0.94	·	·
COc1ccc(CCNC2CC(=O)N(CCc3ccc(OC)c(OC)c3)C2=O)cc1OC (stereo unspecified)	-1.1	8.8	104.5	i	0.91	·	·
COc1ccc(N2C(=O)CC(Sc3nc(C)c4c(n3)CCCC4)C2=O)cc1 (stereo unspecified)	-1.6	-6.5	117.1	i	0.977	6.1	83.3
O=C(O)c1cccc(N2C(=O)c3cccnc3C2=O)c1	-0.8	-6.9	112.7	i	0.9	-39.3	81.6
COc1ccc(CCNC(=O)CSc2nnc(Cc3csc(N)n3)n2C)cc1OC	-1.6	3.1	99.3	i	0.98	-431.0	89.8
COc1cc(OC)c2ccc(=O)oc2c1C(CCN1CCCC1)c1ccc(N(C)C)cc1 (stereo unspecified)	·	·	94.4	i	0.79	·	·
COC(=O)Nc1ccc(S(=O)(=O)N2CCCC(C(=O)N3CCC(C)CC3)C2)cc1 (stereo unspecified)	·	-6.7	99.7	i	0.92	·	·
O=C(NCCCn1ccnc1)c1cc2cc([N+](=O)[O-])ccc2oc1=O	-0.3	-6.1	110.3	i	1.07	0.0	49.7
O=c1ccc(Cc2ccccn2)n[nH]1	-1.6	1.5	108.6	i	1	30.6	59.4
COc1ccc2c(c1)c1ccc3c(c1n2C)C(=O)C=CC3=O	·	·	55.6	i	0.92	·	·
O=S(=O)(c1ccc(S(=O)(=O)N(Cc2cccs2)CC2CCCO2)cc1)N1CCCCC1 (stereo unspecified)	0.8	-4.5	104.7	i	0.86	28.6	76.3
CCOC(=O)CCCSc1nc(-c2ccc3c(c2)OCO3)cc(C(F)(F)F)c1C#N	-0.5	-11.8	95.3	i	0.91	40.0	80.7
Cc1cc(C)c(N=C2SCC(=O)N2Cc2ccco2)c(C)c1	·	·	101.8	i	1.07	·	·
COC(=O)C1=C(C)NC(C)=C(C(=O)OC)C1c1ccccn1	-1.8	-4.6	103.0	i	1.1	-9.5	93.7
O=C(O)Cn1nc2ccccc2n1	-1.5	-3.1	104.9	i	0.83	-10.8	132.8
CCC(C)(C)n1nnnc1CN1CCC(NC(=O)c2ccccc2C)CC1	-1.9	-11.1	109.0	i	0.97	62.1	48.4
C/C(=N\OC(=O)c1c(-c2ccccc2Cl)noc1C)c1nccs1	·	1.8	102.9	i	0.96	·	·
CCCOc1ccc2c3c(c(=O)oc2c1OCCC)CCC3	1.4	-8.8	109.9	i	0.82	-38.9	160.0
O=C1CC(Cc2ccccc2)C(=O)N1Cc1ccco1 (stereo unspecified)	-2.1	3.0	101.4	i	1.03	8.3	87.7
Nc1nc(SCC(=O)Nc2ccccc2)[nH]c(=O)c1-c1ccccc1	-2.6	-5.7	·	i	1.09	5.6	90.2
COc1ccc(-c2csc3nc(C(C)(C)C)oc(=O)c23)cc1OC	·	-12.8	104.0	i	0.8	·	·
CCOc1ccccc1N/C(=C(/C(Cl)=C(Cl)Cl)[N+](=O)[O-])n1cncn1	-2.4	4.1	91.1	i	0.96	-9.7	137.8
Nc1cccc(-c2cn3cc(C(F)(F)F)cc(Cl)c3n2)c1	-2.0	-2.5	54.2	i	0.9	·	·
COC(=O)c1sc(S(=O)(=O)N2CCC(C)CC2)c(C(=O)OC)c1C	-1.1	-1.1	104.8	i	0.83	·	·
COc1ccc(C(C(=O)NC2CCCCC2)N2CCC3(CC2)OCCO3)cc1 (stereo unspecified)	-1.3	-6.8	106.3	i	1	·	·
CC(C)C(NC(=O)c1ccccc1)C(=O)NCCc1ccccc1 (stereo unspecified)	·	-3.1	116.5	i	1	·	·
Cc1cccc(C)c1NC(=O)CSC(=O)c1sc2ccccc2c1Cl	·	·	-2.1*	i	0.94	·	·
COc1ccc(S(=O)(=O)Nc2cccc(/C=C/C(=O)O)c2)cc1	-1.0	-2.2	104.8	i	1.05	-21.6	120.2
COC(=O)Nc1ccc(S(=O)(=O)N2CCC(Cc3ccccc3)CC2)cc1	-0.9	-9.1	95.1	i	0.92	29.6	128.6
COc1ccc2nc(SCC(=O)N3CCN(c4ccc(F)cc4)CC3)c(C#N)cc2c1	-1.4	1.6	103.6	i	1.03	53.9	104.5
COc1cccc(-c2nc(-c3ccccn3)no2)c1	-1.5	-0.6	89.1	i	0.8	11.1	129.4
CCN(CC)S(=O)(=O)c1cc(C(=O)Nc2cccnc2)ccc1Cl	-1.1	3.8	-203.0	i	1.47	-6.7	118.4
CC(NC(=O)c1ccc(S(=O)(=O)C(F)F)cc1)c1ccccc1 (stereo unspecified)	·	-5.9	101.0	i	0.99	·	·
O=c1[nH]c2ccccc2nc1/C=C/c1ccc(O)cc1	·	9.6	103.2	·	·	·	·
O=C(O)C1CC(=O)N(c2ccc(F)cc2)C1 (stereo unspecified)	-2.1	-2.1	102.5	i	0.9	-51.7	117.5
O=C(COC(=O)Cc1ccsc1)Nc1ccc(Cl)c(S(=O)(=O)N2CCOCC2)c1	-1.2	-6.9	107.9	i	0.93	41.5	104.6
CCOc1ccc(-n2c(C)cc(C(=O)NS(=O)(=O)c3ccc(C)cc3)c2C)cc1	0.0	9.3	96.5	i	1.22	·	·
COc1ccc2nc(NC(=O)C3CCCN3S(=O)(=O)c3ccc(C)cc3)sc2c1 (stereo unspecified)	-0.9	11.2	91.7	i	1	-66.7	123.9
The list goes on.
SMILES	GALR2 agonist	PKD1 inh	RGS16-Gao	HSV augment	HSV augment primary fold	INS promoter inh	INS promoter inh cell count
CCC(=O)OCC(=O)Nc1cc([N+](=O)[O-])ccc1Cl	·	-1.0	103.6	i	0.94	·	·
O=C(Nc1ccccc1F)N1CCCC1c1cccnc1 (stereo unspecified)	·	·	104.4	i	0.97	·	·
CC(=O)NC(Cc1c[nH]c2ccccc12)C(=O)OCC(=O)N1CCCCCC1 (stereo unspecified)	·	3.4	98.1	i	1.12	5.9	81.7
O=C(C1COc2ccccc2O1)N1CCN(Cc2ccc3c(c2)OCO3)CC1 (stereo unspecified)	-0.6	-6.0	100.6	i	0.917	·	·
O=C(COc1ccccc1)NCC(=O)Nc1cccc2ccccc12	-1.3	-0.5	103.9	i	0.98	-10.0	107.3
Cc1cc(C)nc(/N=C(\N)Nc2ccccc2-c2ccccc2)n1	·	0.4	113.0	i	0.85	·	·
O=C(CC(c1ccccc1)c1ccccc1O)NCc1ccccc1 (stereo unspecified)	·	3.5	97.3	i	0.86	·	·
CCOc1ncnc2c1sc1nc(C)cc(C)c12	·	·	100.5	i	0.93	·	·
CC(=O)N1CCN(S(=O)(=O)c2cccc(C(=O)NC3CCCc4ccccc43)c2)CC1 (stereo unspecified)	-5.0	-8.6	103.6	i	1	-47.2	78.6
Cc1ccc(S(C)(=O)=NC(=O)c2cc(C)on2)cc1 (stereo unspecified)	·	·	89.8	i	1.08	·	·
N#Cc1c(N)nc2c(c1-c1cccnc1)CCCCC2	-0.6	15.3	102.6	i	0.84	25.9	96.3
COC(=O)C(CC(=O)O)NCc1ccco1 (stereo unspecified)	·	·	99.4	i	1.17	·	·

Another view of some results above:
smiles,GALR2 agonist,PKD1 inh,RGS16-Gao,HSV augment,HSV augment primary fold,INS promoter inh,INS promoter inh cell count
CC(=O)NC(Cc1c[nH]c2ccccc12)C(=O)OCC(=O)N1CCCCCC1 (stereo unspecified),·,3.4,98.1,i,1.12,5.9,81.7
O=C(C1COc2ccccc2O1)N1CCN(Cc2ccc3c(c2)OCO3)CC1 (stereo unspecified),-0.6,-6.0,100.6,i,0.917,·,·
O=C(COc1ccccc1)NCC(=O)Nc1cccc2ccccc12,-1.3,-0.5,103.9,i,0.98,-10.0,107.3

Among those listed so far, these contain a Cl atom:
SMILES	GALR2 agonist	PKD1 inh	RGS16-Gao	HSV augment	HSV augment primary fold	INS promoter inh	INS promoter inh cell count
O=C1CC(=O)C(n2cncn2)C(c2c(F)cccc2Cl)C1 (stereo unspecified)	-0.3	-10.4	102.7	i	0.94	0.0	106.8
Cc1ccc(Cl)cc1N1CCN(C(=S)NCCc2ccccc2)CC1	·	-0.3	104.8	i	1.11	5.9	116.8
O=C(COc1cccnc1[N+](=O)[O-])NCCc1ccc(Cl)cc1Cl	·	-5.2	104.3	i	0.97	·	·
COc1ccc(C(=O)CSc2nnc(CN3CCCCC3)n2-c2ccc(Cl)cc2)cc1OC	0.2	5.7	106.6	i	0.88	27.3	119.7
C/C(=N\OC(=O)c1c(-c2ccccc2Cl)noc1C)c1nccs1	·	1.8	102.9	i	0.96	·	·
CCOc1ccccc1N/C(=C(/C(Cl)=C(Cl)Cl)[N+](=O)[O-])n1cncn1	-2.4	4.1	91.1	i	0.96	-9.7	137.8
Nc1cccc(-c2cn3cc(C(F)(F)F)cc(Cl)c3n2)c1	-2.0	-2.5	54.2	i	0.9	·	·
Cc1cccc(C)c1NC(=O)CSC(=O)c1sc2ccccc2c1Cl	·	·	-2.1*	i	0.94	·	·
CCN(CC)S(=O)(=O)c1cc(C(=O)Nc2cccnc2)ccc1Cl	-1.1	3.8	-203.0	i	1.47	-6.7	118.4
O=C(COC(=O)Cc1ccsc1)Nc1ccc(Cl)c(S(=O)(=O)N2CCOCC2)c1	-1.2	-6.9	107.9	i	0.93	41.5	104.6
CCC(=O)OCC(=O)Nc1cc([N+](=O)[O-])ccc1Cl	·	-1.0	103.6	i	0.94	·	·

Screening data (PubChem)
